Menin-MLL FL inh: inhibitors of human menin-MLL interaction, wild-type MLL peptide; 290,000 tested, under 10 active; FP activity change, % at 61.4 µM; Fluorescence polarization, fluorescein-MLL peptide displacement from menin; AID 1766; inconclusive = falling polarisation curve, or a change in total fluorescence; inactive = total fluorescence flat and polarisation flat or rising; no compound was filed as active; the % refers to the polarisation; negative = inhibition;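 also: % of control where 0% means no effect; inhibitors lower the polarisation; unlabelled MLL peptide was the positive control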
Sfp inh: Sfp phosphopantetheinyl transferase inhibition | Q9F4F7 | Biochemical Sfp PPTase activity, qHTS | Potency, µM, for inactives: max response, negative = inhibition, hits mostly inhibitors | 3.5% of 310,000 active | AID 1490; active = well fitted inhibition curve with a large enough effect; inconclusive = small, poorly fitted or top-dose-only effect, or another doubt; inactive = no such curve, though single readings can be large or run the other way;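 also: the enzyme is Sfp with the accession as filed and its product quenches rhodamine fluorescence; potency is read from the fitted curve at half-maximal effect; 0% = enzyme reaction without inhibitor and -100% = no enzyme wells; top concentration of the series not given in the record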
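Compounds were incubated with enzyme (final 15 nM) for 15 min at room temperature before substrate addition started the reaction. Fluorescence at 525 nm excitation, 598 nm emission was recorded immediately and after 30 minutes.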
gsp antagonist: antagonizes gsp, the McCune-Albright syndrome mutation. 0.4% of 340,000 active. Potency, µM (top dose mostly 76.9 µM), inactives show top-dose activity change, negative = inhibition, usual class: inhibitors. AID 624288. gsp-mutant cells, cAMP HTRF, 30 min; control for the full effect not named in the record; active = falling curve of any shape with a large fitted effect; inconclusive = falling curve, mostly with a smaller effect; inactive = flat or rising curve; cell line not stated here;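 also: intracellular cAMP measured with PDE inhibitor Ro 20-1724 present during compound exposure; potency is read from the fitted curve at half-maximal effect; % is scaled to controls: 0 for no effect and ±100 for the full control effect; nearly all actives have a fitted effect of over 65% in size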
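HTRF cAMP read-out (cAMP-d2 plus anti-cAMP antibody-K in lysis buffer, 30 min RT). Before lysis, cells are exposed to compounds with […] for 30 min at 37C in DPBS containing Ca/Mg, BSA and Tween 20.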
ClpP mod: qHTS Assay for Activators of ClpP | purified B. subtilis ClpP, FRET peptide cleavage, 20 min | ATP-dependent Clp protease proteolytic subunit (Bacillus subtilis (strain 168)), P80244 | Potency, µM (titrated, usually from 57.5 µM), without a hit: at the highest dose activity change, negative = active | 1.9% of 340,000 active; active = well fitted falling curve with a large enough effect; inconclusive = small, poorly fitted or top-dose-only effect; inactive = no such curve, though single readings can be large or run the other way; also: potency is read from the fitted curve at half-maximal effect; the source files actives as falling curves though it sought activators and does not explain the sign; nearly all actives have a fitted effect of over 65% in size; many hits overshoot -100%
Target sequence (P80244 whole entry, looked up): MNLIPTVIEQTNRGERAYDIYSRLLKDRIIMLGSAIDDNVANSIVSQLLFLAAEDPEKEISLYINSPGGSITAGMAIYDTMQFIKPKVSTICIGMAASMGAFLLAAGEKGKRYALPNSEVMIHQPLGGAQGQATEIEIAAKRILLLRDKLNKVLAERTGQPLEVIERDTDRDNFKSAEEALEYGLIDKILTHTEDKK
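FRET quenching reversal measured ClpP activation: 10 microg/mL B. subtilis ClpP at pH 8 with the FRET-FV decapeptide, read at 430 nm after 320 nm excitation. The 20-min minus 0-min signal was scaled between DMSO/no-enzyme wells and ADEP (5.8 microM final).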
gsp agonist: gsp mutant agonism | gsp mutant cells, cAMP HTRF, 30 min; control for the full effect not named in the record | Potency, µM (titrated, usually from 76.9 µM), for the others: at the top dose activation (cAMP increase), hits mostly activators | 0.13% of 340,000 active; active = well fitted activation curve with a large enough effect; inconclusive = small, poorly fitted or top-dose-only effect, or another doubt; inactive = no such curve, though single readings can be large or run the other way; cell line not stated here;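 also: phosphodiesterase inhibitor Ro 20-1724 added with compounds to block cAMP breakdown; potency is read from the fitted curve at half-maximal effect; nearly all actives have a fitted effect of over 60% in size; about a fifth of the inactives were tested at one dose only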
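Cells in DMEM/10% FBS with G418 were pretreated with compounds in DMSO plus […] (300 uM stock) for 30 min at 37C. cAMP was measured by HTRF (cAMP-d2 plus anti-cAMP antibody-K) after 30 min at room temperature.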
D2 ag: human D2 receptor agonism in beta-arrestin assay; DiscoveRx PathHunter D2 beta-arrestin, luminescence, 90 min; 100% = 57 uM dopamine signal; AID 624465; 0.084% of 360,000 active; P14416; activation, % (concentration not given with the values); in the data active = activation above about 40%; inconclusive = about 15% to 40%; inactive = below about 15%; also: compound concentration not given in the record; the text of the record calls up to 30% inactive
Target sequence (P14416 whole entry, looked up): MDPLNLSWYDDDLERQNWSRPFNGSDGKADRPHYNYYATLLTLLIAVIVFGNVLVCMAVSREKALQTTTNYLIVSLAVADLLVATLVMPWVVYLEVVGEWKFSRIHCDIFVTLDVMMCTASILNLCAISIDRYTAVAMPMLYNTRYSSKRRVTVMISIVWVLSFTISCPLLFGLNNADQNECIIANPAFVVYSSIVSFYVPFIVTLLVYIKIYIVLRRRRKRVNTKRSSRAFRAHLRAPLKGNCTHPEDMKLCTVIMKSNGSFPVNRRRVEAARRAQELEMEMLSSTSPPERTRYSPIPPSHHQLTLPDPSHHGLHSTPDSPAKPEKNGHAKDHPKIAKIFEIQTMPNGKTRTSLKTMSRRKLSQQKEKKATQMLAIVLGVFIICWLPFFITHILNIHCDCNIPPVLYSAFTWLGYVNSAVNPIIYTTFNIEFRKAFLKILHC
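Agonist mode: compounds alone added to overnight-plated D2 PathHunter cells for 90 min at 37 C, with 57 uM final dopamine (EC100) defining full response. Beta-arrestin recruitment detected by chemiluminescent reagent, read after 1 h at ambient temperature.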
PINK1 modulator: PINK1 expression modulation; 0.2% of 410,000 active; AID 624263; Potency, µM (titrated, usually from 76.6 µM), without a hit: at the highest dose activation (PINK1 increase), actives largely listed as activators; PINK1 immunofluorescence, high-content cytometry, 24 h; active = well fitted activation curve with a large enough effect; inconclusive = small, poorly fitted or top-dose-only effect; inactive = flat fitted curve, though single readings scatter; cell line not stated here;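 also: potency is read from the fitted curve at half-maximal effect; % of control where 0% means no effect; nearly all actives have a fitted effect of over 65% in size; a mitochondrial uncoupler was the plate control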
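Measures PINK1 amount and localization on or inside mitochondria by immunofluorescence. Stable cells get compounds at 5 concentrations for 24 hours before fixation and staining; CCCP controls included.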
* marks the source's active call; other numbers are inactive results; ? = inconclusive; · = not tested or not shown; & = joins results of further samples; [ ] = another dose, or the depositor's remark. Not a hit list; 5.1% or so of the library scored in one or more.

| SMILES | Menin-MLL FL inh | Sfp inh | gsp antagonist | ClpP mod | gsp agonist | D2 ag | PINK1 modulator |
| --- | --- | --- | --- | --- | --- | --- | --- |
| COc1ccccc1P(=O)(c1ccccc1)c1ccc([N+](=O)[O-])cc1 (stereo unspecified) | -8.7 | 7% | 1% | · | -21% | 2.8 | 2.3% |
| COc1ccc(NC(=O)Cn2cnc3sc(C)c(S(=O)(=O)N4CCOCC4)c3c2=O)c(OC)c1 | -1.9 | 14% | 4% | · | -18%[15.4 µM] | -1.8 | 1.0% |
| CCOC(=O)CSc1nnc(Cc2ccccc2)n1-c1ccc(C)cc1 | 1.6 | -3% | -19% | 0.9% | 21% | -1.6 | -2.3% |
| COc1ccccc1/C=C1\CCCC2=C1Nc1nnnn1C2c1ccccc1OC (stereo unspecified) | 21 | 50µM* | -3% | -18% | 8% | -7.5 | -1.2% |
| CN(Cc1ccccc1Cl)C(=O)C1CC(=O)N(c2ccc3c(c2)OCCO3)C1 (stereo unspecified) | · | · | 0% | -16% | -35% | -1.0 | 0.9% |
| COc1cc(OC)cc(C(=O)N2CCC3(CC2)NCCc2[nH]cnc23)c1 | · | 12% | 17% | -1.2% | -6% | -2.2 | -0.8% |
| Cc1cc(NC(=O)c2cccc(S(=O)(=O)N(C)C)c2)n(-c2ccccn2)n1 | -0.8 | -12% | 6% | 0.7% | -1% | -1.9 | 4.6% |
| CC1S/C(=N/N=C/c2ccco2)N(Cc2ccccc2)C1=O (stereo unspecified) | ? | 32µM* | 6% | -1.2% | 1% | -7.5 | 2.2% |
| CCCCC1(C)NC(=O)N(CC(=O)N2CCc3ccccc32)C1=O (stereo unspecified) | · | · | 13% | 0.9% | -12% | -4.3 | -0.1% |
| CCN(CC)S(=O)(=O)c1ccc2c(c1)nc(SCC(=O)N1CCCCCC1)n2-c1ccc(OC)cc1 | 2.3 | 6% | -10% | -3.9% | 4% | -2.9 | 0.0% |
| COC(=O)c1cc(OC)c(OC)cc1NC(=O)CN1CCOCC1 | 4.2 | 13% | 12% | -25% | -52%[inhibitor] | -1.1 | ? |
| O=C(C1CCCN(S(=O)(=O)c2ccccc2)C1)N1CCN(c2ccc(F)cc2)CC1 (stereo unspecified) | 1.1 | 4% | -24% | -0.5% | -6% | 2.9 | 0.1% |
| CC(C)NC(=O)C1(C)CCN1C(=O)c1cccn1C (stereo unspecified) | · | · | · | -1.7% | · | -2.1 | 0.3% |
| Cn1c(=O)c2c(nc(NCc3ccccc3)n2CC(N)=O)n(C)c1=O | -7.1 | 10% | 11% | 0.4% | ? | -4.2 | 2.2% |
| COc1cc(/C=C2\COC/C(=C\c3ccc(O)c(OC)c3)C2=O)ccc1O | 18 | 8% | -23% | · | -27% | -3.3 | -0.9% |
| CC(=O)NCCNc1nc(NC(C)C)nc2cc(-c3ccccc3)sc12 | · | · | · | -22% | · | -4.6 | 1.2% |
| CC(C)[C@H](NC(=O)c1cccc(S(=O)(=O)N2CCCC2)c1)c1nc2ccccc2[nH]1 | 7.1 | 19% | -8% | -0.5% | -12% | 0.0 | 4.3% |
| CC1CCN(C(=O)c2[nH]cnc2C(=O)N[C@@H](C)C(=O)OCc2ccccc2)CC1 | 0.1 | 5% | -5% | -0.6% | · | 6.5 | 3.1% |
| CSCCC(NS(=O)(=O)c1ccc2c(c1)oc(=O)n2C)C(=O)NC1CCC(C)CC1 (stereo unspecified) | -2.3 | -3% | 6% | -1.6% | -35%[inhibitor] | -1.0 | -0.6% |
| NC(=O)/C=C\c1cn(-c2ccccc2)nc1-c1ccc2c(c1)OCCO2 | 2.9 | -18% | -10% | -17% | 19%[15.4 µM] | 3.7 | -3.8% |
| CCC(C)NC(=O)Cc1c(C)c2cc3c(cc2oc1=O)OC(C)(C)CC3 (stereo unspecified) | -6.3 | 2% | -1% | · | 3% | -1.4 | 0.9% |
| Cc1ccc(-c2nc(CS(=O)(=O)CC(=O)NCCN3CCOCC3)c(C)o2)cc1 | 4.6 | 9% | 6% | · | -41%[inhibitor] | 1.6 | 1.0% |
| CCCCC(=O)Nc1ccccc1CC | 1.2 | 7% | 7% | · | -23%[15.4 µM] | -2.8 | 1.6% |
| Nc1ccc(Oc2ccc(Cl)cc2)cc1 | 2.1 | 7% | 7% | -2.9% | -20% | -2.1 | 11%[38.3 µM] |
| COc1ccc(NC(=S)N2CCCCCC2)cc1OC | 0.3 | 9% | 6% | 0.2% | 4% | -7.1 | -1.9% |
| O=C1[C@@H]2Cc3c([nH]c4ccccc34)C(c3cccc([N+](=O)[O-])c3)N2C(=O)CN1CCCO (stereo partly specified) | -5.8 | 6% | 3% | -0.5% | 19% | -12 | -0.5% |
| CCOc1ccc(NC(=O)CN(C)C(=O)c2cccnc2SC)cc1OCC | · | -11% | 11% | 1.1% | 3% | -1.8 | 5.4% |
| Cn1c(=O)c2c(nc(NCc3cccnc3)n2Cc2ccccc2Cl)n(C)c1=O | 0.0 | -1% | 0% | -1.4% | 9% | -1.4 | 3.5% |
| C=CCOc1ccc(/C=N/NC(=O)C(=O)N2CCCCCC2)cc1OC | 1.0 | 7% | 1% | · | 6% | -2.1 | 1.1% |
| COc1ccc(C2c3ccc(O)cc3Oc3ncn4nc(-c5ccccn5)nc4c32)cc1OC (stereo unspecified) | 17 | 0% | -3% | · | -9%[15.4 µM] | -1.7 | 7.6% |
| Cc1ccc(-n2c(=O)c3ccc(C(=O)NCc4ccco4)cc3n(Cc3ccccc3C#N)c2=O)cc1 | 2.1 | 4% | -26% | -4.6%&-3.1% | 14% | -2.4 | -3.5%&4.5% |
| CC1CCC(NC(=O)c2cccc(S(=O)(=O)N3CCN(c4ccc(F)cc4)CC3)c2)CC1 (stereo unspecified) | · | · | 3% | 16% | 17% | -1.5 | 4.1% |
| O=C(COc1ccc(Cl)cc1[N+](=O)[O-])N/N=C/c1cccs1 | 1.7 | -1% | -12% | -0.2% | 27% | -1.4 | -0.6% |
| CCCCCC(O)(c1ccc(OCC)cc1)C(CN1CCOCC1)c1ccccc1 (stereo unspecified) | 0.9 | -2% | -7% | · | ? | -3.7 | ? |
| CCCCC(C(=O)O)C(C)CC(=O)Nc1nccs1 (stereo unspecified) | 0.6 | 7% | 9% | 0.1% | ? | -5.2 | 0.5% |
| Clc1ccc(-c2nnc3ccccn23)cc1 | 1.3 | 3% | -5% | 28µM* | 4% | 2.0 | -0.5% |
| CCN(CC)S(=O)(=O)c1ccc(C(=O)OCC(=O)c2ccc3c(c2)NC(=O)CO3)cc1 | 9.1 | 0% | 4% | -1.6% | 1% | 0.4 | · |
| Cc1c(NC(=O)c2cccnc2C(=O)O)cccc1C(=O)O | 5.3 | ? | -1% | -0.9% | 2% | -2.1 | -1.7% |
| O=C(CN1C(=O)NC2(CCc3ccccc32)C1=O)c1c[nH]c2ccccc12 (stereo unspecified) | · | · | 2% | · | 2%[15.4 µM] | -2.7 | 3.2% |
| Cc1nnc(N(Cc2ccco2)C(=O)c2ccno2)s1 | 6.3 | -8% | 10% | 0.2% | -27% | -1.4 | 2.0% |
| COC(=O)c1sccc1NC(=O)C1CC1 | 1.9 | 7% | 8% | · | 9%[15.4 µM] | -9.6 | 0.4% |
| CC(=O)N(c1ccccc1)c1nc(/C=C/C(=O)Nc2c(C)cc(C)cc2C)cs1 | 2.8 | -11% | 1% | 1.4% | ? | -1.5 | 12% |
| Cc1cccc(N=C(NO)c2nonc2N)c1 | 1.5 | 2% | -14% | -2.6% | 9% | 5.7 | 0.2% |
| COc1ccc(CC(=O)NCc2nc(-c3ccccc3)no2)cc1 | 0.8 | 3% | -2% | · | ? | 2.3 | -1.4% |
| COc1ccc(NC(=O)CC2C(=O)N(CCc3ccccc3)C(=S)N2Cc2cccnc2)cc1 (stereo unspecified) | -0.9 | 4% | -30% | 1.1% | ? | 0.2 | 4.9%[38.3 µM] |
| OCCNc1nc(-c2ccccc2)nc2c1oc1ccccc12 | -0.5 | -5% | -9% | 0.5% | 2% | -0.1 | 0.0% |
| CC12CCC(O)CC1=CCC1C2CCC2(C)C3=NN=CC3CC12 (stereo unspecified) | · | · | -11% | · | 15% | 1.5 | -0.8% |
| COc1ccc(-n2ncc3c(N4CCc5ccccc54)ncnc32)cc1 | -0.4 | 5% | 38%[activator] | -4.4% | ? | 0.8 | 9.2%[38.3 µM] |
| COc1ccc(CCNC(=O)CC(c2ccccc2)c2cc(C)ccc2O)cc1OC (stereo unspecified) | 2.4 | 1% | ? | -1.4% | -33%[inhibitor] | 8.5 | -0.2% |
| OC(c1cccc(Cl)c1)c1nc(-c2ccccc2)cs1 (stereo unspecified) | · | · | · | -3.6% | · | 2.0 | 6.5% |
| COc1cccc(-c2cc(NC=O)c3ncc(-c4cccc(C(=O)NCCN(C)C)c4)n3c2)c1 | · | · | · | -16% | · | ? | 2.0% |
| Cc1ccccc1OCC1Cn2c(nc3c2c(=O)[nH]c(=O)n3C)O1 (stereo unspecified) | 2.7 | 10% | 4% | 0.3% | -10% | -1.6 | -3.0% |
| O=C(OCC(=O)N1CCOCC1)C(c1ccccc1)c1ccccc1 | -0.5 | 15% | 1% | -1.7% | -16% | 0.4 | 1.7% |
| O=C(COC(=O)c1ccc2c(c1[N+](=O)[O-])C(=O)c1ccccc1C2=O)NC1CC1 | -1.3 | 8% | -15% | · | 10% | ? | 5.2% |
| Oc1nc(Nc2ccccc2)sc1/C=C1\C=Nc2ccccc21 | ? | -23% | -27% | 1.2% | -1% | -0.1 | 1.5% |
| CCCn1nc(C(=O)NCC(C)(C)N2CCOCC2)c2ccccc2c1=O | 1.2 | 8% | -5% | -0.6% | -3% | -4.3 | -1.9% |
